Bioassay records from PubChem BioAssay.
Vaccinia mCherry = inhibitors of vaccinia virus infection (mCherry reporter signal); Vaccinia virus mCherry reporter infection, fluorescence; about a quarter of the inactives have no number; Potency, µM (top dose mostly 36.5 µM), inactives show top-dose activity change, negative = inhibition, usual class: inhibitors; hit rate 0.63% among 310,000; AID 720579; active = well fitted inhibition curve with a large enough effect; inconclusive = small, poorly fitted or top-dose-only effect; inactive = no such curve, though single readings can be large or run the other way; tested in A549 cells; also: nearly all actives have a fitted effect of over 35% in size; inactives centre near -10
Vaccinia Venus = inhibitors of vaccinia virus (Venus reporter). Vaccinia virus Venus reporter expression, fluorescence. Potency, µM (top dose mostly 36.5 µM), for the others: at the top dose activity change, negative = inhibition, usual class: inhibitors. hit rate 0.46% among 330,000. AID 720580; active means well fitted inhibition curve with a large enough effect; inconclusive means small, poorly fitted or top-dose-only effect; inactive means no such curve, though single readings can be large or run the other way; tested in A549 cells; also: nearly all actives have a fitted effect of over 30% in size; inactives centre near -10
An asterisk follows results filed as active; & = joins results of further samples; [ ] = remark or other dose. % is scaled to controls: 0 for no effect and ±100 for the full control effect; potency is read from the fitted curve at half-maximal effect.

`COc1ccc(NC(=O)C2Cc3c(-c4ccccc4Oc4ccccc4)ccnc3O2)cn1` (configuration not stated) gave Vaccinia mCherry -22% and Vaccinia Venus -11%.
Screening O=C(Cc1cc(C(F)(F)F)cc(C(F)(F)F)c1)Nc1c(-c2ccccc2)[nH][nH]c1=O returned Vaccinia mCherry inconclusive and Vaccinia Venus -6%.
COc1ccc(OCC(=O)Nc2ccc(-c3nc4cc(C)cc(C)c4o3)cc2)cc1 was read as Vaccinia mCherry 0% and Vaccinia Venus -29%.
For COC(=O)c1c(NC(=O)CN2C(=O)NC3(CCC(C(C)(C)C)CC3)C2=O)sc2c1CCCCC2 (configuration not stated) the results were Vaccinia mCherry inactive and Vaccinia Venus 0%.
For Cc1ccc(-c2cc(C(F)(F)F)n3ncc(C(=O)N4CCCCC4c4cccnc4)c3n2)cc1 (configuration not stated) the results were Vaccinia mCherry -7% and Vaccinia Venus -7%.
For CC1CCCC(C)N1C(=O)CSc1nnc(-c2c[nH]c3ccccc23)o1 (configuration not stated) the results were Vaccinia mCherry -21% and Vaccinia Venus -19%.
O=C(OCCN1C(=O)c2cccc3c(N4CCOCC4)ccc(c23)C1=O)c1ccc(Cl)cc1Cl was read as Vaccinia mCherry inconclusive and Vaccinia Venus -21%.
For Cc1ccccc1-n1c(O)c(/C=N/c2nccs2)c(=O)[nH]c1=O the results were Vaccinia mCherry inactive and Vaccinia Venus -11%&-10%.
Screening CC(=O)c1cc2c(cc1NC(=O)CN1CCCCC1C)OCO2 (configuration not stated) returned Vaccinia mCherry -12% and Vaccinia Venus -25%.
`CC1CCC(NC(=O)CCS(=O)(=O)c2ccc3c(c2)CCN3C(=O)C2CC2)CC1` (configuration not stated) gave Vaccinia mCherry -9%[7.34 µM] and Vaccinia Venus -2%[7.34 µM].
Cc1cc(C)cc(N(CCC#N)C(=O)COC(=O)Cn2[nH]c(=O)c3ccccc3c2=O)c1 was read as Vaccinia mCherry -8% and Vaccinia Venus -9%.
Screening Cc1ccc(Nc2ccc([N+](=O)[O-])nc2[N+](=O)[O-])cc1 returned Vaccinia mCherry inactive and Vaccinia Venus -10%.
`Cc1cc(-c2n[nH]c(=S)n2-c2ccccc2)nn1C` gave Vaccinia mCherry inactive and Vaccinia Venus -4%.
`Cc1ccc2nc(SC(C(=O)c3ccccc3)c3ccccc3)nc(C)c2c1` (configuration not stated) gave Vaccinia mCherry 22% and Vaccinia Venus -1%.
Screening Nc1ccc(C(=O)c2cccs2)cc1 returned Vaccinia mCherry -3% and Vaccinia Venus 1%.
`CN1C(=O)CSc2ccc(NC(=O)N3CCOCC3)cc21` gave Vaccinia mCherry -8% and Vaccinia Venus -3%.
`CCCCN1C(=O)C(O)=C(C(C)=O)C1c1ccccc1` (configuration not stated) gave Vaccinia Venus -21%.
Screening O=C(CSCc1ccc(Cl)cc1)Nc1cc([N+](=O)[O-])ccc1O returned Vaccinia mCherry inconclusive and Vaccinia Venus -17%.
`CC1CCCCC1NC(=O)CN1C(=O)NC(Cc2ccccc2)(Cc2ccccc2)C1=O` (configuration not stated) gave Vaccinia mCherry -9% and Vaccinia Venus -7%.
For CCCCN(CCCNC(=O)c1ccc2c(c1)NC(=O)CN2C)c1ccccc1 the results were Vaccinia mCherry -25% and Vaccinia Venus -24%.
Screening C[C@H](CO)N1C[C@H](C)[C@@H](CN(C)CC2CC2)Oc2c(NC(=O)C3CC3)cccc2C1=O returned Vaccinia mCherry 0% and Vaccinia Venus -1%.
COc1ccc(S(=O)(=O)Nc2ccccc2C(=O)N2CCOCC2)cc1C was read as Vaccinia mCherry -16% and Vaccinia Venus -7%.
For C[C@H](CO)N1C[C@H](C)[C@@H](CN(C)C(=O)NC2CCCCC2)Oc2c(NC(=O)Nc3ccc(C(F)(F)F)cc3)cccc2C1=O the results were Vaccinia mCherry -30% and Vaccinia Venus inconclusive.
For CC(C)c1nc2oc3c(N(C)CCO)ncnc3c2c2c1CCC2 the results were Vaccinia mCherry inactive and Vaccinia Venus -15%.
Screening Cc1ccc(C(C)C)cc1S(=O)(=O)NCc1cccnc1 returned Vaccinia mCherry -3% and Vaccinia Venus -12%.
CCCCSP1(=S)NCCCO1 (configuration not stated) was read as Vaccinia mCherry -24% and Vaccinia Venus -22%.
For COc1ccc(N2CC(NC(=O)C3CCCC3)CC2=O)cc1OC (configuration not stated) the results were Vaccinia mCherry inactive and Vaccinia Venus -5%.
`Cc1ccc(N(CC(=O)NCC(O)c2ccccc2)S(=O)(=O)c2ccc(C)cc2)cc1` (configuration not stated) gave Vaccinia mCherry -15% and Vaccinia Venus -18%.
For CCCN1/C(=C(\C#N)C2=NS(=O)(=O)c3ccccc32)N(C)c2ccccc21 the results were Vaccinia mCherry -8% and Vaccinia Venus -5%.
`Cc1ccc(S(=O)(=O)c2[nH]c(-c3ccccc3)nc2SCC(=O)O)cc1` gave Vaccinia mCherry 8% and Vaccinia Venus -4%.

Entries shown so far containing an aryl methoxy group:
`COc1ccc(NC(=O)C2Cc3c(-c4ccccc4Oc4ccccc4)ccnc3O2)cn1` (configuration not stated) gave Vaccinia mCherry -22% and Vaccinia Venus -11%.
COc1ccc(OCC(=O)Nc2ccc(-c3nc4cc(C)cc(C)c4o3)cc2)cc1 was read as Vaccinia mCherry 0% and Vaccinia Venus -29%.
COc1ccc(S(=O)(=O)Nc2ccccc2C(=O)N2CCOCC2)cc1C was read as Vaccinia mCherry -16% and Vaccinia Venus -7%.
For COc1ccc(N2CC(NC(=O)C3CCCC3)CC2=O)cc1OC (configuration not stated) the results were Vaccinia mCherry inactive and Vaccinia Venus -5%.

Later entries:
`CCOC(=O)C1(C(=O)OCC)CC1c1ccccc1` (configuration not stated) gave Vaccinia Venus -16%.
Screening CC(C)CNC(=O)C(=O)NCc1ccccc1 returned Vaccinia mCherry -5% and Vaccinia Venus -7%.
Screening O=C(CSC1=NCCS1)NC(c1ccccc1)c1ccccc1 returned Vaccinia mCherry -3% and Vaccinia Venus -4%.
Screening Cc1ccc(S(=O)(=O)c2c(Nc3cc(C)ccc3C)sc(C(=O)c3ccc4c(c3)OCO4)c2N)cc1 returned Vaccinia mCherry -12% and Vaccinia Venus -26%.
Screening CCc1ccc(-c2nc3cc(NC(=O)c4ccc(C)c(C)c4)ccc3o2)cc1 returned Vaccinia mCherry 1% and Vaccinia Venus -9%.
For COc1cc(CO)ccc1OCc1ccc(Cl)nc1 the results were Vaccinia mCherry -9% and Vaccinia Venus -13%.
For CCN(CC)S(=O)(=O)c1ccc(C)c(NC(=S)N2CCN(Cc3ccc4c(c3)OCO4)CC2)c1 the results were Vaccinia mCherry -26% and Vaccinia Venus -15%.
CCOc1cc(C(=O)Nc2ccc(C)cc2O)ccc1OCC(=O)N1CCOCC1 was read as Vaccinia mCherry -10% and Vaccinia Venus -1%.
`COc1cccc(CNC(=O)C2CCN(S(=O)(=O)c3ccc4c(c3)NC(=O)C(C)S4)CC2)c1` (configuration not stated) gave Vaccinia mCherry -20% and Vaccinia Venus -21%.
Screening O=C(c1ccco1)N1CCN(C(=O)c2ccc(-c3cccc(C(F)(F)F)c3)o2)CC1 returned Vaccinia mCherry -12% and Vaccinia Venus -8%.
CCCC(=O)N1N=C(c2ccccc2)CC1c1cn(C)c2ccccc12 (configuration not stated) was read as Vaccinia mCherry inactive and Vaccinia Venus -12%.
Cc1cc(OC(C)C(=O)Nc2cccc(-c3nc4ccccc4o3)c2)cc(C)c1Cl (configuration not stated) was read as Vaccinia mCherry -17% and Vaccinia Venus -1%.
For CCOC(=O)C1CCN(C(=O)c2cccc(Cl)c2)CC1 the results were Vaccinia mCherry -6% and Vaccinia Venus -13%.
Screening CC(=O)c1cn(Cc2ccccc2C#N)c2ccccc12 returned Vaccinia mCherry inactive and Vaccinia Venus -6%.
COc1cc(/C=N/N2CCOCC2)ccc1OCc1ccc(Cl)cc1 was read as Vaccinia mCherry inactive and Vaccinia Venus 5%.
Screening CCC(C)C1NC(=S)N(Cc2ccccc2)C1=O (configuration not stated) returned Vaccinia Venus -16%.
Screening CCOC(=O)N1CCN(Cc2ccc(O)c3ncccc23)CC1 returned Vaccinia mCherry inconclusive and Vaccinia Venus inconclusive.
For Cc1ccc(-n2c(C)cc(/C=N/NC(=O)Cn3c4ccccc4c(=O)c4ccccc43)c2C)cc1 the results were Vaccinia mCherry -20% and Vaccinia Venus -11%.
Cc1ccc(NC2=NCCC2)cc1Cl was read as Vaccinia mCherry -15% and Vaccinia Venus -16%.
`CCOc1ccc(N(CC(=O)NCCc2ccccc2)S(=O)(=O)c2ccccc2)cc1` gave Vaccinia mCherry -18% and Vaccinia Venus -19%.
N#Cc1ccc(C(=O)N2CCN(c3nc4ccc(F)cc4s3)CC2)cc1 was read as Vaccinia mCherry inconclusive and Vaccinia Venus inconclusive.
`COc1ccc2nc(NC3=NCCN3)sc2c1` gave Vaccinia mCherry -22% and Vaccinia Venus -12%.
`Cc1ccc(C(=O)OC(C)CN2CCN(C)CC2)cc1` (configuration not stated) gave Vaccinia mCherry -8% and Vaccinia Venus -11%.
`O=C(CCC(=O)NNC(=O)c1ccccc1[N+](=O)[O-])NCc1ccccc1` gave Vaccinia mCherry -9% and Vaccinia Venus -6%.
Cc1ccc(-n2cc(CN3CCC(CO)(Cc4cccc(C(F)(F)F)c4)CC3)cn2)cc1 was read as Vaccinia mCherry inconclusive and Vaccinia Venus 11µM*.
For CCOc1ccccc1CNC(=O)C1CCCN(c2ncnc3c2nc2n3CCCCC2)C1 (configuration not stated) the results were Vaccinia mCherry -11% and Vaccinia Venus -20%.
`Cc1ccc(CNC(=O)C2CCCCN2S(=O)(=O)c2ccccc2)cc1` (configuration not stated) gave Vaccinia mCherry -8% and Vaccinia Venus -11%.
Cc1ccccc1C(=O)NNC(=O)c1ccc(F)cc1 was read as Vaccinia mCherry -18% and Vaccinia Venus -15%.
`COc1ccc(-c2nc(C)c(CCNC(=O)C(=O)Nc3cc(C)cc(C)c3)s2)cc1OC` gave Vaccinia mCherry -1% and Vaccinia Venus -3%.
Screening C=CCNC(=O)COc1coc(CN2CCN(C(=O)c3ccco3)CC2)cc1=O returned Vaccinia mCherry -18% and Vaccinia Venus -8%.
`Cc1ccc(OCCCn2ccnc2)cc1C` gave Vaccinia Venus -3%.
For CC1(C)CC(NC(=O)c2cc(S(=O)(=O)N3CCCCC3)ccc2Cl)CC(C)(C)N1 the results were Vaccinia mCherry inactive and Vaccinia Venus -4%.
For O=C1NC(c2ccccc2OC(F)F)Oc2ccccc21 (configuration not stated) the results were Vaccinia mCherry 1% and Vaccinia Venus 1%.
Screening COc1cc(/C=c2\s/c(=C(/C#N)C(=O)N3CCCC3)n(-c3ccccc3)c2=O)ccc1O returned Vaccinia Venus 18%.
COc1ccccc1NC(=S)Nc1ccc2cn[nH]c2c1 was read as Vaccinia mCherry 0% and Vaccinia Venus 2%.
For Cn1c(SCC(=O)Nc2nccs2)nnc1C1CC1 the results were Vaccinia mCherry -14% and Vaccinia Venus -2%.
`CCOc1ccc(NC(=O)c2cc3c(C)nc4ccccc4c3o2)cc1` gave Vaccinia mCherry inactive and Vaccinia Venus -19%.
Screening Cc1ccccc1NC(=O)c1sc2nc(N3CCOCC3)c3c(c2c1N)CC(C)(C)OC3 returned Vaccinia mCherry -16% and Vaccinia Venus -14%.
`CCc1nc2c3cnn(-c4cc(Cl)ccc4C)c3ncn2n1` gave Vaccinia mCherry -6% and Vaccinia Venus 7%.
For CC1CCCN(S(=O)(=O)c2ccc(CN3C(=O)c4cccnc4C3=O)cc2)C1 (configuration not stated) the results were Vaccinia mCherry -10% and Vaccinia Venus -8%.
`O=C(N/N=C/c1ccc(O)c(O)c1)c1cc(-c2ccccc2)nc2ccccc12` gave Vaccinia mCherry inactive and Vaccinia Venus -10%.
O=C(CSc1ccccc1)NC(=O)NCc1ccccc1 was read as Vaccinia mCherry -5%[7.34 µM] and Vaccinia Venus 3%[7.34 µM].
For CN(N=O)c1ccc(/C=C2\C=Cc3ccccc32)cc1 the results were Vaccinia mCherry -18% and Vaccinia Venus -7%.
COc1ccc(NC(=S)NC2CCCCC2)c(OC)c1 was read as Vaccinia mCherry -15% and Vaccinia Venus -11%.
For CCOC(=O)c1c(C)[nH]c(C(=O)OC)c1CCC(=O)OC the results were Vaccinia Venus -16%.
Screening Cc1ccccc1NC(=O)N1C2CCCC1CC(NC(=O)C(C)(C)C)C2 (configuration not stated) returned Vaccinia mCherry -9% and Vaccinia Venus 3%.
`COc1ccc(NC(=O)c2nnn(CC(=O)Nc3ccc(C)c(C)c3)c2N)cc1OC` gave Vaccinia mCherry -20% and Vaccinia Venus -16%.
Screening FC(F)(F)c1ccccc1-c1nccc(NCc2ccccc2)n1 returned Vaccinia mCherry inactive and Vaccinia Venus 0%.
Screening Cc1n[nH]c(C)c1S(=O)(=O)N1CCC(C(=O)O)CC1 returned Vaccinia mCherry -2% and Vaccinia Venus 1%.
Screening CC(C)CCNC(=O)C(=O)NCCC1=CCCCC1 returned Vaccinia mCherry -15% and Vaccinia Venus -9%.
N#C/C(=C\c1c(N2CCOCC2)nc2ccccn2c1=O)C(=O)NC1CCS(=O)(=O)C1 (configuration not stated) was read as Vaccinia mCherry -4% and Vaccinia Venus -11%.

A portion from the list above, for reference:
Screening FC(F)(F)c1ccccc1-c1nccc(NCc2ccccc2)n1 returned Vaccinia mCherry inactive and Vaccinia Venus 0%.
Screening Cc1n[nH]c(C)c1S(=O)(=O)N1CCC(C(=O)O)CC1 returned Vaccinia mCherry -2% and Vaccinia Venus 1%.
Screening CC(C)CCNC(=O)C(=O)NCCC1=CCCCC1 returned Vaccinia mCherry -15% and Vaccinia Venus -9%.
N#C/C(=C\c1c(N2CCOCC2)nc2ccccn2c1=O)C(=O)NC1CCS(=O)(=O)C1 (configuration not stated) was read as Vaccinia mCherry -4% and Vaccinia Venus -11%.
